miR-21 FLuc: qHTS Assay for Modulators of miRNAs and/orActivators of miR-21; AID 2288, 2010; Potency, µM (doses to about 38.3 µM), without a hit: at the highest dose reporter change, positive = more light; 340,000 tested, under 10 active; HeLa miR-21 FLuc reporter, luciferase, 48 h; active = well fitted rising curve with a large enough effect; inconclusive = small, poorly fitted or top-dose-only effect; inactive = no such curve, though single readings can be large or run the other way;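 note: % of control where 0% means no effect; miR-21 action dims this reporter so a rising signal means less miR-21 action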
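Luminescence from a firefly luciferase reporter carrying a miR-21 binding site downstream, stably expressed under a CMV promoter in HeLa cells that make miR-21 endogenously, reports miRNA modulation after 48 h compound exposure up to approximately 40uM final.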
Numbers without * were called inactive; u = inconclusive.

SMILES | miR-21 FLuc
Cc1cccc(NC(=O)C(=O)NCC(c2ccc3c(c2)OCO3)N2CCOCC2)c1C (stereo not drawn) | -0.9%
CCCC(=O)N1c2ccccc2-c2nnc(SC)nc2OC1c1sccc1C (stereo not drawn) | 0.2%
CCOC(=O)c1cnc2c(Cl)cc(Cl)cc2c1Nc1ccccc1OC | -1.7%
COc1cccc(Cn2c(CNS(=O)(=O)c3ccc(Cl)s3)nc3cccnc32)c1 | 7.0%
CC(=O)c1c(C)oc2ccc(NS(=O)(=O)c3ccc(C(C)C)cc3)cc12 | 16.6%
Cc1ccc(-n2c(SCC(=O)Nc3cccc(F)c3)nc3c(oc4ccccc43)c2=O)cc1C | 0.1%
Cc1ccc(CSc2cn(CCNC(=O)c3cccs3)c3ccccc23)cc1 | u
COc1ccc(-n2ccn(Cc3ccccc3C)c(=O)c2=O)cc1 | u
COc1ccc(NC(=O)CSc2nc3ccccc3n2Cc2cccc(OC)c2)cc1 | -5.0%
CCc1ccc(NC(=O)c2ccc(-c3ccccc3)s2)cc1 | -5.4%
CSc1cccc(NC(=O)c2cc3c(COC(C)=O)cnc(C)c3oc2=O)c1 | -2.3%
Cc1ccc(NC(=O)C2CCN(c3nc4ccccc4[nH]3)CC2)c(C)c1 | -1.1%
CN(C)S(=O)(=O)c1ccc2c(c1)N(CC(=O)N1CCN(c3ccc(F)cc3)CC1)CCS2 | 5.0%
O=C(CC1C(=O)OCCN1Cc1ccccc1)Nc1ccc(F)cc1 (stereo not drawn) | -1.1%
Cc1ccc(C)c(-n2nnc(C(=O)Nc3ccc(Br)cc3)c2C)c1 | -6.2%

Some of the entries so far, with the structure last:
miR-21 FLuc | Structure
0.2% | CCCC(=O)N1c2ccccc2-c2nnc(SC)nc2OC1c1sccc1C (stereo not drawn)
-1.7% | CCOC(=O)c1cnc2c(Cl)cc(Cl)cc2c1Nc1ccccc1OC
7.0% | COc1cccc(Cn2c(CNS(=O)(=O)c3ccc(Cl)s3)nc3cccnc32)c1

Other structures
SMILES | miR-21 FLuc
Cc1cc(NC(=O)COc2ccccc2)cc(-c2nc3ccccc3o2)c1O | 3.9%
CCOC(=O)c1ccc(CSc2nnc3cc(C)c4ccccc4n23)cc1 | 4.8%
CCOC(=O)c1c(S(=O)(=O)N2CCCC(C(=O)NCc3ccc(F)cc3)C2)c(C)n(CC)c1C (stereo not drawn) | -2.1%
CCC(=O)N1CCc2cc(Br)cc(S(=O)(=O)N3CCN(c4cccc(Cl)c4)CC3)c21 | 6.0%
CCOc1ccc(S(=O)(=O)NCCc2csc3nc(-c4ccc(OC)c(OC)c4)nn23)cc1 | -19.2%
CCc1ccc(CNC(=O)c2cccc(-n3cnc4cccnc43)c2C)cc1 | 11.1%
Cc1c(CNC(C)CCc2ccccc2)c(C(=O)O)c(C)n1Cc1ccc(F)cc1 (stereo not drawn) | 6.4%
CC1(C)CC(=O)c2cc(-c3nc(-c4ccc(Cl)cc4)cs3)c(=O)[nH]c2C1 | 0.1%
COc1cccc(-c2nc(CS(=O)(=O)CC(=O)NCCc3ccc(Cl)cc3)c(C)o2)c1 | 11.6%
COc1ccc(C(=O)Nc2nc3n(n2)C(c2ccccc2)C=C(c2ccccc2)N3)cc1 (stereo not drawn) | 6.2%
COc1ccc(-c2nc(Cn3c(=O)cc(-c4ccccc4)c4c(C)nn(C)c43)c(C)o2)cc1OC | -3.8%
Cc1nc2cccnc2n1-c1cccc(C(=O)N2CCN(c3ccc(Cl)cc3)CC2)c1 | u
COc1ccc(CNC(=O)c2ccc(NC(=O)N3CCSc4ncccc43)cc2)cc1OC | -7.3%
CCCOc1ccc(NC(=O)CC2C(=O)N(c3cccc(C)c3)C(=O)N2CCc2ccncc2)cc1 (stereo not drawn) | 14.7%
COc1ccc(NC(=O)c2oc3ccccc3c2NC(=O)C23CC4CC(CC(C4)C2)C3)cc1 | 12.0%

Some of the entries so far, as labelled records:
structure: CCOc1ccc(S(=O)(=O)NCCc2csc3nc(-c4ccc(OC)c(OC)c4)nn23)cc1
  miR-21 FLuc: -19.2%

structure: Cc1ccc(C)c(-n2nnc(C(=O)Nc3ccc(Br)cc3)c2C)c1
  miR-21 FLuc: -6.2%

structure: CCCOc1ccc(NC(=O)CC2C(=O)N(c3cccc(C)c3)C(=O)N2CCc2ccncc2)cc1 (stereo not drawn)
  miR-21 FLuc: 14.7%

structure: CC1(C)CC(=O)c2cc(-c3nc(-c4ccc(Cl)cc4)cs3)c(=O)[nH]c2C1
  miR-21 FLuc: 0.1%

The list continues:
SMILES | miR-21 FLuc
COCCN1C(=O)c2oc3ccc(C)cc3c(=O)c2C12C(=O)N(C)c1ccccc12 (stereo not drawn) | 4.5%
O=C(Nc1ccc(Br)cc1)c1ccc(Br)c(S(=O)(=O)NCc2ccccc2)c1 | 27.6%
COc1cc(NC(=O)CSc2nc3ccccc3nc2Cc2ccc(Cl)cc2)cc(OC)c1 | -3.3%
Cn1c(=O)c2c(nc(NCc3ccccc3)n2Cc2ccccc2)n(C)c1=O | 6.1%
CC(=O)c1c(C)oc2c(Cl)cc(NS(=O)(=O)c3cc(C)c(C)cc3C)cc12 | -2.8%
CSc1ccc(CCNC(=O)C2CCN(c3nc4ccccc4nc3C(F)(F)F)CC2)cc1 | -1.9%
CCOC(=O)c1cc2c(=O)n3ccccc3nc2n(Cc2ccco2)c1=NC(=O)c1ccc(Br)cc1 | -8.9%
CCc1ccccc1NC(=O)Nc1nnc(N2CCCC2)s1 | 9.5%
COc1ccc(-c2cc(C(F)(F)F)n3nc(C)c(-c4ccccc4)c3n2)cc1OC | -12.3%
CN(Cc1ccccc1)c1ccc(-c2nc(-c3cccnc3)no2)cc1[N+](=O)[O-] | 6.2%
COc1ccc(-c2c(C#N)c(SCC(=O)Nc3ccc(C)c(C)c3)nc(C)c2C(=O)Nc2ccc(Cl)cc2)cc1 | 2.9%
CCc1ccc(C(=O)c2cn(CC(=O)NCCc3ccc(OC)c(OC)c3)c3nc(C)ccc3c2=O)cc1 | -0.4%
CC(C)n1c(=O)c2oc3ccccc3c2n(Cc2ccccc2F)c1=O | -2.6%
CC(=O)N1CCCc2cc(S(=O)(=O)N3CCC(C(=O)N(C)C4CCCCC4)CC3)ccc21 | 0.7%
COc1ccc(C)cc1NS(=O)(=O)c1ccc2oc(=O)c3ncn(C)c3c2c1 | -0.3%
Cc1ccc(C)c(NC(=O)CSc2nnc(CNC(=O)c3ccccc3)n2-c2ccccc2)c1 | -0.3%
Cc1cn(S(=O)(=O)c2ccc(F)c(Cl)c2)cn1 | -1.9%
CCOC(=O)c1cccc(NS(=O)(=O)c2cc3[nH]c(=O)c(=O)[nH]c3cc2C)c1 | -2.5%
Cc1ccc(N(Cc2cccs2)C(=O)c2ccco2)cc1 | -6.2%
Cc1cc2n(n1)CCCN2C(=O)Nc1ccc(Cl)cc1 | -32.6%
Cc1ccccc1OCC(=O)Nc1ccc2nc(SCC(N)=O)sc2c1 | -24.7%
Cc1oc2ncnc(N3CCOCC3)c2c1C(=O)N(Cc1ccccc1)C(C)C | -13.0%
COC(=O)c1sc(NC(=O)c2cc3nc(-c4ccc(Br)cc4)cc(C(F)(F)F)n3n2)c(C(=O)OC)c1C | -3.5%
Cn1cc(S(=O)(=O)c2cccc(Cl)c2)c(=O)c2cc(F)c(N3CCCCCC3)cc21 | 0.0%
CCc1cccc(NC(=O)CCc2c(C)nc3c(-c4ccccc4)c(C)nn3c2C)c1 | 8.6%
Cc1cc(C)cc(NC(=O)CSCc2cc(=O)c3cc(Cl)ccc3[nH]2)c1 | -3.9%
CCN(Cc1ccccc1)C(=O)c1cnn(-c2ccc(F)cc2)c1-n1cccc1 | 19.8%
CCOc1ccc(CNS(=O)(=O)c2cc(-c3cc(C)no3)ccc2C)cc1OC | -3.6%
Cc1ccc(Cn2c(SCC(=O)C(C)(C)C)nc3ccsc3c2=O)cc1 | 20.7%
CCn1cc(C(=O)NCc2ccccc2Cl)c(=O)c2cc(S(=O)(=O)N3CCc4ccccc4C3)ccc21 | -5.4%

Quoted from the listing:
For miR-21 FLuc, Cc1cc(C)cc(NC(=O)CSCc2cc(=O)c3cc(Cl)ccc3[nH]2)c1 is entered as -3.9%
For miR-21 FLuc, CCN(Cc1ccccc1)C(=O)c1cnn(-c2ccc(F)cc2)c1-n1cccc1 is entered as 19.8%
For miR-21 FLuc, Cc1ccc(N(Cc2cccs2)C(=O)c2ccco2)cc1 is entered as -6.2%
For miR-21 FLuc, Cc1ccc(Cn2c(SCC(=O)C(C)(C)C)nc3ccsc3c2=O)cc1 is entered as 20.7%

Remaining list, next part:
SMILES | miR-21 FLuc
COc1ccc(OC)c(/C=C(/C#N)c2nc(-c3ccc(-c4ccccc4)cc3)cs2)c1 | -8.0%
CCN1CCc2c(sc(-n3cccc3)c2C(C)NC(=O)Nc2ccccc2C)C1 (stereo not drawn) | -10.5%
COc1cc(C2c3c(-c4cc(C)ccc4O)n[nH]c3C(=O)N2CCCO)ccc1OCCC(C)C (stereo not drawn) | u
Cc1cc(=O)c2cc(C(=O)Nc3ccc(C)c(C)c3)ccc2[nH]1 | -15.8%
CC(C)(C)C#CC(CCc1ccccc1)OS(N)(=O)=O (stereo not drawn) | 0.3%
O=C(Nc1ccc(F)cc1F)C(Cc1ccccc1)N1Cc2ccccc2C1=O (stereo not drawn) | -1.7%
Cc1ccccc1CNC(=O)C(=O)NCC(c1cccs1)S(=O)(=O)c1ccc(Cl)cc1 (stereo not drawn) | 20.8%
Cc1cccc(-c2nc(-c3ccc4c(c3)[nH]c(=O)n4C)no2)c1 | -20.1%
CCC(=O)NCC(c1ccc2c(c1)OCO2)N1CCN(c2ccccc2)CC1 (stereo not drawn) | 19.2%
CC(C)Oc1ccc(C(=O)N2CC(=O)Nc3ccc(F)cc3C2c2ccc(F)cc2)cc1 (stereo not drawn) | 11.6%
Cc1ccc2c(c1)C(=O)C(=O)N2Cc1ccc(OCCC(C)C)cc1 | 16.4%
COc1ccccc1CNC(=O)CSc1nc(=O)[nH]c2c1CCCC2 | 0.0%
Cc1ccc(C)c(N2CCN(c3ncnc4c3nc3n4CCCC3)CC2)c1 | -0.6%
N#Cc1ccc(CSc2nnc(-c3ccc(Br)cc3)o2)cc1 | -2.1%
Cc1ccc(C(=O)Nc2ccccc2C(=O)OCc2cc(=O)n3nc(C4CC4)sc3n2)cc1 | -7.6%
CCOC(=O)CSc1nc2cc3c(cc2c(=O)n1CCCC(=O)NCCc1ccc(OC)c(OC)c1)OCO3 | -7.4%
CC(=O)N1CCc2c(sc3c2c(=O)n(-c2cccc(Cl)c2)c(=O)n3Cc2ccc(F)cc2Cl)C1 | 8.7%
Cc1ccc(NC(=O)Cn2c(=O)n(Cc3nc(C)no3)c(=O)c3cc4c(cc32)OCO4)cc1 | -10.3%
COc1ccc(NC(=O)CCCN2C(=O)COc3ccc(C)cc32)cc1OC | 22.8%
CC(=O)c1ccc(NC(=O)c2nn(C)c3c2CS(=O)(=O)c2ccccc2-3)cc1 | -18.2%
COc1ccc(Nc2oc(/C=C/c3cccc(OC)c3)nc2C#N)cc1 | 0.0%
O=C(NCc1cccc(Br)c1)c1cccn1-c1nnc(N2CCCCC2)s1 | 7.0%
CCc1ccc(Nc2nn3c(=O)c4cc5c(cc4nc3s2)OCO5)cc1 | 0.2%
COc1cc(NC(=O)CC(c2cccs2)N2Cc3ccccc3C2=O)cc(OC)c1OC (stereo not drawn) | 22.4%
COc1ccc(OC)c(NC(=O)c2ccc(-c3nc(COc4ccccc4)c(C)o3)cc2)c1 | 0.0%
COc1ccc(OC)c(CCNC(=O)c2nn(C)c3c2CSc2ccccc2-3)c1 | -7.8%
CCC(C)NC(=O)c1cccc(NC(=O)c2nsc3ccccc23)c1 (stereo not drawn) | -40.9%
Cc1ccc(/C=N/NC(=O)c2c(-c3ccccc3)noc2C)c(O)c1 | 19.5%
Cc1ccc(NC(=O)c2nn(C)c3c2CS(=O)(=O)c2ccccc2-3)c(Cl)c1 | 9.4%
CC1=C(C(=O)Nc2ccc(F)cc2F)C2(CCCCCC2)OC1=O | -6.0%
COc1ccc(Nc2cc(C)nc3c(C)c(C)ccc23)cc1 | 20.3%
N#C/C(=C/c1ccc(Cl)cc1)c1nc(-c2ccc(Br)cc2)cs1 | -0.3%
COc1ccc(C(=O)N2CCN(c3nc4c(C)c(Cl)ccc4s3)CC2)c(OC)c1 | -0.4%
CC1CCc2nc3ncn(Cc4ccc(Cl)cc4)c(=O)c3cc2C1 (stereo not drawn) | -51.2%
COCCN1Cc2cccc(C(=O)Nc3ccc(C)cc3C)c2C1=O | -14.6%
COc1ccc(N2CCN(C(=O)c3ccc(-c4nc(COc5ccccc5)c(C)o4)cc3)CC2)cc1 | 1.4%
CCC(O)c1nc2ccccc2n1Cc1cc(C)ccc1C (stereo not drawn) | 1.6%
Cc1ccc(C)c(CN2C(=O)C(O)(c3c[nH]c4ccccc34)c3ccccc32)c1 (stereo not drawn) | u
O=C(C1CCC(Cn2c(=O)c3sccc3n(Cc3cccc(F)c3)c2=O)CC1)N1CCOCC1 (stereo not drawn) | -8.5%
Cc1ccc(Cl)cc1N1CCN(C(=O)Cn2ncc3c4ccccc4n(C)c3c2=O)CC1 | -2.0%
CCSC1=NC2(CCN(C(=O)NC3CCCCC3)CC2)N=C1c1ccc(Cl)cc1 | 3.2%
CCCOc1ccc(-c2nn(-c3ccccc3)cc2C2NC(=O)NC(C)=C2C(=O)OC)cc1 (stereo not drawn) | -0.3%
CCOC(=O)C1CCCN(c2nc3c(S(=O)(=O)c4ccc(C)c(C)c4)nnn3c3ccc(Cl)cc23)C1 (stereo not drawn) | -6.4%
Cc1nn(CC(=O)N2CCN(c3ccccc3)CC2)c(=O)c2cc3cc(F)ccc3n12 | -4.9%
Cc1cc(N2CCC(C)CC2)nc2ccc(NC(=O)Cc3c(F)cccc3Cl)cc12 | 1.0%
CCN(Cc1ccccc1)S(=O)(=O)c1ccc(F)c(C(=O)Nc2cc(C(F)(F)F)ccc2Cl)c1 | 2.3%
Cc1ccc(CNC(=O)NC2COc3ccccc3C2)cc1 (stereo not drawn) | -7.2%
COc1ccccc1C(=O)NC1=NC(c2ccc(Br)cc2)CC(=O)N1 (stereo not drawn) | -77.6%
CCCc1cnc2c(c1SCC(=O)NCc1ccc(C)cc1)c(=O)n(C)c(=O)n2C | -0.1%

This is a subset, so the mix of outcomes need not match the whole.
